Screens: PubChem, ICCB-Longwood Screening Facility, Harvard Medical School
Sa growth 42C: S. aureus growth inhibition; actives 0.53% (n = 170,000); AID 720641; relative growth, % (no concentration beside the values); S. aureus RN4220 growth, OD600, 20 h, 42 °C; stronger effect = lower value;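 active means growth at 42 °C up to 50% and 20 or more points under that at 30 °C, or under 10% at both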;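 further: 300 nL library stock went into each well; scaled to the means of positive and negative controls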
GIV Gai3 FP: blocks GIV peptide binding to rat Galpha-i3. P08753. Galpha-i3/FITC-GIV peptide fluorescence polarization, 90 min; stronger effect = lower value; scaled: aluminum fluoride 0%, vehicle 100%. percent of control (FP), % (test concentration not listed). actives 0.42% (n = 210,000). AID 1224905;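 active means replicate mean at 85% of control or lower, very high polarization wells dropped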;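 further: wells of about 15 µL received 100 nL stock; the first replicate is given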
Target sequence (P08753 whole entry, looked up): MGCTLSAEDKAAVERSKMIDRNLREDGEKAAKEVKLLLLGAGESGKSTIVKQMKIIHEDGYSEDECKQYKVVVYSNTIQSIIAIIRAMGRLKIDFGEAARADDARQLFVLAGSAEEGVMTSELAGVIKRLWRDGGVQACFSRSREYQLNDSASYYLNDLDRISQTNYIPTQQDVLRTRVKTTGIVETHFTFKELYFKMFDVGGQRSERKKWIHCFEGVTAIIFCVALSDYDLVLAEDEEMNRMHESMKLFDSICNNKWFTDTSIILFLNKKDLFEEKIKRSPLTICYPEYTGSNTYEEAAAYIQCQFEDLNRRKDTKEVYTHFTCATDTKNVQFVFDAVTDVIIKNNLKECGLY
HCMV UL50-53 inh: inhibitors of HCMV UL50-UL53 nuclear egress complex interaction. actives 0.15% (n = 190,000). AID 1918969. HTRF UL50-UL53 interaction, normalized percent inhibition. inhibition, % (test concentration not listed);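 active means both replicates at 50% or more, plus weaker picks with an unusually low signal ratio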;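 further: stock transfer was 100 nL into about 20 µL; 0% = negative control wells and 100% = wells with untagged competitor protein; inactives centre near -12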
Sa growth 42C second temp: also measured in Sa growth 42C; calls as there; relative growth, %; measured here: growth at 30 °C;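 optical density after 20 h as mean of two plates; 100% = untreated growth and lower means inhibition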
* marks the source's active call; other numbers are inactive results; nt = not tested or not shown.

Sequence of screens – HCMV UL50-53 inh, Sa growth 42C second temp, GIV Gai3 FP, Sa growth 42C
COc1cccc(N2CCN(C(=O)c3cccc(-n4c(C)nc5cccnc54)c3)CC2)c1
→ nt, 93, 103, 95
CC1CCN(c2oc(-c3ccc(Cl)cc3)nc2S(=O)(=O)c2ccccc2)CC1
→ -14, nt, 98, nt
CCN(CC)C(=O)Cn1c(=O)cc(C)c2c(C)nn(-c3ccc(C)cc3)c21
→ nt, 90, 100, 92
CCOC(=O)CC1C(=O)NCCN1C1CCCC1 (configuration not stated)
→ 5, nt, 102, nt
COc1ccc(NC(=O)c2cc3c(=O)n(Cc4cccs4)ccc3nc2C)cc1
→ nt, 87, 97, 96
CC(=O)Nc1cccc(C(=O)Nc2ccc(N3CCCCC3)cc2)c1
→ 2, 92, nt, 91
CC(c1ccccc1)N1CC(C(=O)NC2CCCC2)CC1=O (configuration not stated)
→ 8, 87, 103, 88
Cc1ccc2[nH]cc(C(=O)N3CCCCC3)c(=O)c2c1
→ -1, 104, 99, 88
Cc1noc(C)c1COc1ccc(CC(=O)NC2CCCc3ccccc32)cc1 (configuration not stated)
→ -13, 95, nt, 97
O=C1OCCC1Oc1ncnc2ccccc12 (configuration not stated)
→ -9, 99, nt, 98
CN1C(=O)Cc2cc(S(=O)(=O)N3CCN(c4ccc(Cl)cc4)CC3)ccc21
→ nt, 87, 104, 109
COC(=O)c1ccc(CNC(=O)Cn2cnnn2)cc1
→ 6, 95, nt, 94
CCOC(=O)C1=C(CN2CCN(c3cccc(OC)c3)CC2)NC(=O)NC1c1ccc(OC)cc1 (configuration not stated)
→ nt, 90, 111, 108
N#C/C(=C\c1ccc[nH]1)C(=O)N1CCc2ccccc2C1
→ -35, 71, 96, 84
CC1CCN(C(=O)Cn2c(-c3cccs3)cc3cc(Cl)ccc32)CC1
→ nt, 93, 109, 127
CCOc1ccc(-n2c(=O)c3c4c(sc3n(CC(=O)Nc3cccc(C(F)(F)F)c3)c2=O)CCCCC4)cc1
→ -3, 97, 112, 120
O=C1NC(c2ccc(O)cc2)C(C(=O)c2ccccc2)C(O)(C(F)(F)F)N1 (configuration not stated)
→ nt, 84, 104, 103
CCCc1nnc(-c2cc3ccccc3n2CCC)o1
→ -16, nt, 107, nt
CCCCC(=O)Nc1nnc(SCc2cc(=O)n3cc(C)ccc3n2)s1
→ nt, 90, 98, 71
COc1ccc(CC(=O)Nc2ccc3nc(NC(=O)c4ccccc4)sc3c2)cc1OC
→ -14, nt, 105, nt

Continued; it opens with the 6 that closed the last part.
Sequence of screens – HCMV UL50-53 inh, Sa growth 42C second temp, GIV Gai3 FP, Sa growth 42C
CC1CCN(C(=O)Cn2c(-c3cccs3)cc3cc(Cl)ccc32)CC1
→ nt, 93, 109, 127
CCOc1ccc(-n2c(=O)c3c4c(sc3n(CC(=O)Nc3cccc(C(F)(F)F)c3)c2=O)CCCCC4)cc1
→ -3, 97, 112, 120
O=C1NC(c2ccc(O)cc2)C(C(=O)c2ccccc2)C(O)(C(F)(F)F)N1 (configuration not stated)
→ nt, 84, 104, 103
CCCc1nnc(-c2cc3ccccc3n2CCC)o1
→ -16, nt, 107, nt
CCCCC(=O)Nc1nnc(SCc2cc(=O)n3cc(C)ccc3n2)s1
→ nt, 90, 98, 71
COc1ccc(CC(=O)Nc2ccc3nc(NC(=O)c4ccccc4)sc3c2)cc1OC
→ -14, nt, 105, nt
CCN(Cc1ccccc1)C(=O)Cn1c(=O)n(-c2ccc(OC)cc2)c(=O)c2ccccc21
→ -2, 94, 104, 110
CC(NS(=O)(=O)c1ccccc1)c1ccccc1 (configuration not stated)
→ 4, 105, 108, 96
COC(=O)c1c(C)[nH]c(C(=O)CSc2ncnc3sc4c(c23)CCC4)c1C
→ 7, nt, 103, nt
Cc1ccccc1NC(=S)N1CCC(N(C)C(C)C)CC1
→ nt, 93, 99, 109
O=C(CC(c1ccco1)C1CCCCC1=O)c1ccco1 (configuration not stated)
→ -11, 85, nt, 84
Cc1ccc2[nH]c3c(=O)n(CC(=O)NC(C)C)ncc3c2c1
→ nt, 94, 109, 97
CC(=O)NCc1ccc(C(=O)CSc2nnc(-c3ccoc3C)n2C)s1
→ -22, 106, nt, 96
CCOC(=O)C1=C(c2ccccc2)NC(=O)NC1c1ccc(OC)c(OC)c1 (configuration not stated)
→ -5, 106, 102, 110
COc1ccc(CNC(=O)c2ccc3c(c2)nc2n3CCCCC2)c(OC)c1
→ nt, 89, 100, 80
COc1cccc(C2Nc3ccccc3S2)c1OC (configuration not stated)
→ -20, 58, 102, 51
COc1ccccc1CNC(=O)c1ccc2nc3c(cc2c1)CCS3
→ nt, 85, 111, 94
CCC1(c2ccccc2)NC(=O)NC1=O (configuration not stated)
→ -14, 76, 98, 100
N#Cc1cccc(C(=O)NCC(F)(F)F)c1
→ -5, 91, nt, 98
N#CC(c1ccccc1)C12CC3CC(CC(C3)C1)C2 (configuration not stated)
→ -16, 79, nt, 94
Cc1ccc(C2CCCN2S(=O)(=O)c2ccc3c(c2)OCCO3)cc1 (configuration not stated)
→ -32, nt, 101, nt
Nc1cccc(NC(=O)c2ccccc2)c1
→ -13, 91, 108, 97
Cc1[nH]c2ccccc2c1C(=O)CN1CC(C)OC(C)C1 (configuration not stated)
→ -4, 89, nt, 105
Cc1ccccc1C(=O)Nc1nnc2n1CCS2
→ nt, 81, 105, 89
O=C(/C=C/Nc1ccccc1)C(F)(F)F
→ -20, 90, nt, 112
Cc1ccc(-c2noc(-c3ccc(NCC4CCCO4)c([N+](=O)[O-])c3)n2)cc1 (configuration not stated)
→ 3, 91, 107, 105
Cc1ccc(C(C)C)c(OCc2ccc(N)cc2)c1
→ -8, 115, nt, 102
COc1ccc(C(=O)NCc2c(-c3ccccc3)noc2C)cc1
→ -28, 84, 96, 95
Nc1cc(=O)[nH]c(SCC(=O)N2CCc3ccccc32)n1
→ -10, 96, 104, 110
O=C1c2ccccc2-c2c1cccc2C(=O)N1CCCCC1
→ -46, 84, 100, 112
O=C1CC(CSc2nnnn2-c2ccccc2)=NN1
→ -6, 56, 99, 86
COc1ccc(CNC(=O)C(=O)Nc2ccc(OC)cc2OC)cc1
→ 0, 88, 110, 98
CC1CCCC(C)N1C(=O)COC(=O)/C=C/c1ccco1 (configuration not stated)
→ -55, 81, nt, 126
CCCN(C(=O)Cn1cnc2onc(-c3ccc(F)cc3)c2c1=O)c1cccc(Cl)c1
→ nt, 104, 108, 116
CC(C)N(Cc1nc(-c2ccccc2)no1)C(=O)c1ccccc1
→ nt, 85, 103, 99
CCc1ccc(CNc2nc3nc(CNC(C)C)cc(=O)n3[nH]2)cc1
→ 4, nt, 95, nt
CC(=O)Nc1ccc(C)cc1-c1nc2ccccc2n(CC(=O)c2ccc(C)c(C)c2)c1=O
→ -18, 89, 98, 93
Cc1cc(C)n(C)c(=O)c1C(=O)O
→ nt, 89, 103, 103
CCCCn1c(-c2ccc(OC)cc2)nc2ccccc21
→ nt, 68, 100, 88
COc1ccc(-c2cc(C(F)(F)F)n3nc(C(=O)Nc4ccccc4SC)cc3n2)cc1OC
→ 17, 101, 105, 97
Cc1ccn2c(NC(=O)c3ccc(C)c(C)c3)c(-c3cccs3)nc2c1
→ nt, 84, 98, 93
CCCNc1cc(C)nc2nc(-c3ccc(C(C)(C)C)cc3)nn12
→ -12, nt, 104, nt
FC(F)(F)c1cccc(-c2csnn2)c1
→ -20, nt, 101, nt
COc1cccc(-c2cc(=O)[nH]c(SCc3nc(-c4ccccc4)oc3C)n2)c1
→ -10, nt, 102, nt
CC(=O)N1CCN(c2ccc(NC(=O)COc3cc(C)c(Cl)c(C)c3)cc2)CC1
→ 12, 88, nt, 97
Cc1[nH]nc2c1C(c1ccccc1)C(C#N)=C(N)O2 (configuration not stated)
→ 0, 96, 104, 103
CCN1C=C(C(=O)OC)C(c2ccc(Cl)cc2)C(C(=O)OC)=C1
→ 5, 90, nt, 104
CCNS(=O)(=O)c1ccc(NC(=O)CSc2nc(-c3ccco3)cc(C(F)(F)F)n2)cc1
→ -37, 80, 97, 87
CC(=O)N1Cc2ccccc2CC1C(=O)NCc1ccccc1F (configuration not stated)
→ -15, 93, nt, 74
CCN(Cc1ccccc1)S(=O)(=O)c1cc(Cl)ccc1Cl
→ nt, 52, 105, 62
CCc1ccc(NC(=O)c2noc3ncnc(N4CCOCC4)c23)cc1
→ -16, nt, 102, nt
CCOc1cccc(CNCCN2CCOCC2)c1
→ 4, 77, 98, 110
COc1ccc2c(Sc3ccc(Cl)cc3)c(C(=O)N(C)Cc3ccccc3)[nH]c2c1
→ nt, 71, 95, 89
Cc1nc(N2CCCC2)c2c(C(=O)Nc3ccc(C)c(Cl)c3)c(C)oc2n1
→ nt, 101, 112, 120
C=CCn1c(=O)c2ccccc2n2c(=S)[nH]nc12
→ -9, 80, nt, 95
Cc1ccc(CN2CCC(NC(=O)c3ccccc3)CC2)cc1
→ -3, 97, 95, 112
CSc1nc(N)n(-c2ncc(C(F)(F)F)cc2Cl)n1
→ -5, 69, 102, 90
CCC(=O)C1=C(c2cccc(OC)c2)N(C(=O)CC)n2c(nnc2C2CCCCC2)S1
→ nt, 86, 96, 137
Cc1ccc(-c2c(N3CCOCC3)c(=O)c2=O)cc1C
→ -38, nt, 109, nt
CCOC(=O)c1ccc(NS(=O)(=O)c2cc(-c3onc(C)c3C)ccc2C)cc1
→ nt, 85, 103, 87
CCOc1ccc(CCNC(=O)Cn2ncc3c(=O)oc4ccc(C)cc4c32)cc1
→ -37, 88, 102, 106
CN=c1scc(-c2ccc(F)cc2)n1/N=C/c1ccc(C)o1
→ -29, 88, nt, 97
CN(CC(=O)Nc1ccc(F)cc1)C(=O)CCc1ccccc1
→ -2, 86, nt, 101
COC(=O)C1CN(C(=O)COc2ccccc2)c2ccccc2O1 (configuration not stated)
→ nt, 77, 105, 91
CCCc1nc2ccccc2n1CC(=O)Nc1ccc(S(=O)(=O)N(C)C)cc1
→ -15, 92, nt, 82
Cc1ccc(NC(=O)c2cc(-c3cccs3)nc3ccccc23)c(C)c1
→ -26, 85, 103, 124

Carrying on.
Sequence of screens – HCMV UL50-53 inh, Sa growth 42C second temp, GIV Gai3 FP, Sa growth 42C
CC(C)(C)c1ccc(C(=O)NCC(=O)OCc2cc(=O)n3ccsc3n2)cc1
→ -15, nt, 102, nt
CN(C)c1cccc(C(=O)NN2C(=O)NC3(CCCCC3)C2=O)c1
→ -9, 95, nt, 100
CC(=O)Nc1ccc(C(=O)OCC(=O)N2CCCCC2C)cc1 (configuration not stated)
→ -7, 98, nt, 110
CCOC(=O)c1cccc(NC(=O)c2cc3c(=O)n(Cc4cccnc4)ccc3nc2C)c1
→ nt, 100, 106, 107
O=C(NCC1CCCO1)c1ccc(COCC(F)(F)C(F)F)cc1 (configuration not stated)
→ -29, 81, 103, 97
CCOC(=O)N1CCN(c2ncnc3c2cnn3-c2ccccc2)CC1
→ 10, 80, 108, 96
c1cnc(Sc2nc3ccccc3s2)nc1
→ -11, 86, nt, 88
Cc1ccc2oc(=O)n(CC/C(N)=N/OC(=O)c3ccccc3)c2c1
→ -38, 75, 99, 86
Cc1ccc(S(=O)(=O)N2CCc3cc(C(=O)Nc4ccc(C(F)(F)F)cc4)ccc32)cc1
→ -17, 87, 101, 95
Cc1ccc(-n2ncc3c(Nc4cccc(C(=O)O)c4)ncnc32)cc1
→ -44, 89, 101, 109
O=C(Cc1ccc(F)cc1)Nc1nncs1
→ -1, 80, 105, 94
Cc1ccc(C(=O)c2cn(Cc3ccccc3F)c3cc4c(cc3c2=O)OCCO4)cc1
→ -3, 88, 101, 108
CCNC(=S)N1CCn2cccc2C1c1ccc(OC)cc1 (configuration not stated)
→ -37, 66, 110, 78
S=C(NCC1CCCO1)NC1CC1 (configuration not stated)
→ -16, 92, 104, 91
Cc1cc(NS(=O)(=O)c2ccc3c(c2)CC(=O)N3)ccc1Br
→ nt, 70, 100, 88
COc1ccc(NC(=O)Cn2c(SCc3cccc(Cl)c3)nc3ccncc32)c(OC)c1OC
→ -3, 85, 99, 104
CCCC1=Nc2cc(C(=O)NCCc3ccccc3)ccc2Sc2ccc(C)cc21
→ 15, 98, 105, 106
O=C(O)c1c2c(nc3ccccc13)-c1ccccc1CC2
→ -3, 110, 103, 110
O=C(Nc1ccccc1O)c1cccc(S(=O)(=O)Nc2ccccc2O)c1
→ -3, 84, 95, 97
O/N=C1\CCCc2c1nc(-c1ccccc1Cl)n2O
→ -3, 84, nt, 113
Cn1ccccc1=S
→ 5, 93, nt, 101
CCc1ccc(C2N3CC4(CC)CN2CC(CC)(C3)C4O)cc1 (configuration not stated)
→ -8, nt, 94, nt
Cc1ccc2nc(S/C=C/C(=O)c3ccccc3)[nH]c2c1
→ -11, 47, 89, 73
CN(C)CCNC(=O)c1cc(-c2ccccc2)nc2ccccc12
→ -57, 79, 99, 96
COc1cc(NS(=O)(=O)c2cc(C)c(Cl)cc2C)c(C(=O)O)cc1OC
→ -36, 85, 100, 104
COc1ccc(C(Nc2ncnc3c2ncn3C2CC=C(CO)CC2)(c2ccccc2)c2ccccc2)cc1 (configuration not stated)
→ 8, nt, 105, nt
CCOC(=O)Cn1c(=O)oc2cc(S(=O)(=O)N3CCC(C(=O)OCC)CC3)ccc21
→ -23, 90, 102, 91
CC(=O)c1ccc(NC(=O)c2ccc3c(c2)N(Cc2cccc(Cl)c2)C(=O)c2ccccc2S3(=O)=O)cc1
→ -38, 90, 103, 86
COc1ccc(S(=O)(=O)NC(C)C(N)=O)cc1 (configuration not stated)
→ -5, 99, 103, 99
Cc1cccc(N(C)S(=O)(=O)c2cc3c(cc2Cl)NC(=O)CO3)c1
→ nt, 96, 100, 113
